Cruzain inh noDet = qHTS Assay for Promiscuous and Specific Inhibitors of Cruzain (without detergent); Cruzipain (Trypanosoma cruzi), P25779; purified cruzain, Z-FR-AMC fluorescence, no detergent; Potency, µM, without a hit: max response, negative = inhibition, hits mostly inhibitors; actives 2.3% (n = 200,000);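 further: plate controls were enzyme without inhibitor for no effect and buffer without enzyme for full effect; nearly all actives have a fitted effect of over 40% in size; top concentration of the series not given in the record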
Target sequence (P25779 123-467 limits assumed): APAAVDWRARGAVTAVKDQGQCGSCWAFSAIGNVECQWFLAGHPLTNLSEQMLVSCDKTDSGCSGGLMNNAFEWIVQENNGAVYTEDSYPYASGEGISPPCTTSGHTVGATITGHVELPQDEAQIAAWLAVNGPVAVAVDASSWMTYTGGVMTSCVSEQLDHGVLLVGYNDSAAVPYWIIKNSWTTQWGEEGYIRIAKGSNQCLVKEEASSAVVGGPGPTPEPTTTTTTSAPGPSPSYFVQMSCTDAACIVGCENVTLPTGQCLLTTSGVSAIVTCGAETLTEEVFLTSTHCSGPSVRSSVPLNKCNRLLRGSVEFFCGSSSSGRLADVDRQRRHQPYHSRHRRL
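Detergent-free condition (0.00005% Triton X-100) in acetate buffer pH 5.5 with DTT. 1.5 nM enzyme and compound were pre-mixed 15 min, then 2 uM Z-FR-AMC substrate added; reaction progress from fluorescence change between first and third reads (60 s).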
RE007 growth inh = qHTS Assay for Inhibitors of the HIV-1 protein Vpr | S. pombe RE007 Vpr strain, BacTiter-Glo ATP luminescence, 24 h; control for the full effect not named in the record | Potency, µM (series often up to 92.2 µM), without a hit: at the top dose activity change, negative = less growth | actives 0.21% (n = 360,000); active = well fitted falling curve with a large enough effect; inconclusive = small, poorly fitted or top-dose-only effect; inactive = no such curve, though single readings can be large or run the other way;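 further: on the % scale 0 is the no-effect control and ±100 the full control effect; nearly all actives have a fitted effect of over 50% in size; the assay follows cell death caused by Vpr and the record does not say whether a fall means rescue or toxicity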
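Fission yeast strain RE007, carrying one chromosomally integrated HIV-1 vpr copy, was seeded at OD 0.01 in PMG+AL medium with 23 nL pinned compound. After 24 h at 30 °C and 99% humidity, viability was read by BacTiter-Glo luminescence.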
Cruzain Triton = qHTS Assay for Promiscuous and Specific Inhibitors of Cruzain (with detergent) | actives 0.43% (n = 200,000) | purified cruzain, Z-FR-AMC fluorescence, 0.01% Triton | Potency, µM, for the others: max response, negative = inhibition, usual class: inhibitors | Cruzipain (Trypanosoma cruzi), P25779;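 further: plate controls were neutral wells for no effect and buffer without enzyme for full effect; nearly all actives have a fitted effect of over 40% in size; top concentration of the series not given in the record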
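Enzyme 1.5 nM, Z-FR-AMC 2 uM, NaOAc 100 mM pH 5.5, DTT 5 mM, Triton X-100 0.01%; 15 min RT compound preincubation; kinetic ex360/em450, 60 s delta.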
LASV entry inh = qHTS for Inhibitors of binding or entry into cells for Lassa Virus. Lassa virus pseudotype entry inhibition, cell reporter; control for the full effect not named in the record. Potency, µM (doses to about 37.9 µM), for the others: at the top dose activity change, negative = inhibition, most hits filed as inhibitors. actives 1.2% (n = 300,000). AID 540256, 2011; active means well fitted inhibition curve with a large enough effect; inconclusive means small, poorly fitted or top-dose-only effect, or effect the other way; inactive means flat fitted curve, though single readings scatter; tested in HEK293 cells; further: on the % scale 0 is the no-effect control and ±100 the full control effect; nearly all actives have a fitted effect of over 50% in size; luciferase read-out
SARS PLpro yeast = qHTS of Yeast-based Assay for SARS-CoV PLP; S. cerevisiae expressing SARS-CoV PLpro, growth rescue; control for the full effect not named in the record; Potency, µM (highest dose often 32.9 µM), for the others: at the top dose activity, positive = growth rescue; actives 0.19% (n = 330,000); active means well fitted rising curve with a large enough effect; inconclusive means small, poorly fitted or top-dose-only effect; inactive means no such curve, though single readings can be large or run the other way; further: 0% is about no effect; nearly all actives have a fitted effect of over 55% in size; growth read by luminescence after 48 h
StopGo reporter = High Throughput Screening for Foot and Mouth Disease Virus Antivirals; AID 1159524, 2015; Potency, µM (highest dose often 57.9 µM), inactives show at the top dose signal change, negative = less light; human cells with a luciferase reporter of 2A StopGo recoding; control for the full effect not named in the record; actives 1.2% (n = 410,000); active = well fitted falling curve with a large enough effect; inconclusive = small, poorly fitted or top-dose-only effect; inactive = no such curve, though single readings can be large or run the other way; tested in HEK293T cells; further: on the % scale 0 is the no-effect control and ±100 the full control effect; nearly all actives have a fitted effect of over 45% in size; luciferase light after 4 h
MARV entry inh = qHTS for inhibitors of binding or entry into cells for Marburg Virus. actives 1.8% (n = 300,000). Marburg virus pseudotyped entry inhibition, cell reporter; control for the full effect not named in the record; about a third of the inactives were read at about 46 µM. Potency, µM (titrated, usually from 37.8 µM), for the others: top-dose activity change, negative = inhibition, most hits filed as inhibitors. AID 540276, 2011; active = well fitted inhibition curve with a large enough effect; inconclusive = small, poorly fitted or top-dose-only effect, or effect the other way; inactive = flat fitted curve, though single readings scatter; tested in HEK293 cells; about a fifth of its hits are not listed in these tables; further: on the % scale 0 is the no-effect control and ±100 the full control effect; luciferase read-out
NS1 function inh = qHTS Assay for Inhibitors of Influenza NS1 Protein Function; actives 0.4% (n = 270,000); AID 2326, 2010; Potency, µM (series often up to 46.1 µM), for the others: top-dose activity, positive = more growth; S. cerevisiae slowed by influenza A NS1, growth recovery by OD600; active means well fitted rising curve with a large enough effect; inconclusive means small, poorly fitted or top-dose-only effect; inactive means no such curve, though single readings can be large or run the other way; further: nearly all actives have a fitted effect of over 50% in size
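S. cerevisiae expressing influenza A NS1, grown in glucose, washed, then diluted 1:100 into pH 6.0 -URA galactose medium with 23 nl compound. Growth recovery read as OD600; NS1-free strain serves as control.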
Numbers without * were called inactive; u = inconclusive; x = not tested or not shown; & = joins results of further samples; [ ] = dose if it differs, or a comment. Unless noted, the call rests on the fitted dose curve; in most records, active means well fitted curve in the direction sought with a large enough effect; inconclusive means small, poorly fitted or top-dose-only effect, or another doubt; inactive means no such curve, though single readings can be large; an effect the other way counts as inactive or inconclusive. Potency means the concentration at half of the fitted maximal effect.

structure | Cruzain inh noDet | RE007 growth inh | Cruzain Triton | LASV entry inh | SARS PLpro yeast | StopGo reporter | MARV entry inh | NS1 function inh
CC1CC1C(=O)Nc1nc(-c2ccccn2)cs1 (stereo not drawn) | 3.6% | -18.3% | 2.6% | -20.6% | 27.7% | -10.1% | 2.2%[46.1 µM] | -14.0%
Cc1ccc(NC(=O)Cc2nnc(SCC(=O)Nc3nncs3)n2C)cc1 | x | -24.9% | x | x | 14.6% | 5.9% | -11.2%[46.1 µM] | 2.0%
CC(C)C[C@H](N)C(=O)N1CCC(C(=O)N[C@H](C(=O)NC(C)c2ccccc2)C(C)C)CC1 (stereo partly drawn) | x | 14.4% | x | x | 1.0% | -10.7% | x | -3.8%
S=C1NCN(C2CCCCC2)CN1CCc1ccccc1 | x | -8.3% | x | u | 0.3% | 26.8% | -29.5%[46.1 µM] | 0.0%
Cc1cc(C)c(S(=O)(=O)N(C)CC(=O)NCc2ccncc2)c(C)c1 | x | -3.6% | x | 1.8% | -0.4% | -0.3% | 2.4%[46.1 µM] | 3.2%
Cc1ccc(NC(=O)Cn2c(=O)n(-c3ccccc3)c(=O)c3ccc(C(=O)NCc4ccc5c(c4)OCO5)cc32)cc1 | -0.6% | x | -2.5% | 4.0%[46.1 µM] | x | 16.9% | 13.8%[46.1 µM] | x
c1ccc(-c2cc(-c3ccc(N4CCOCC4)cc3)nc3ccccc23)cc1 | 10.5% | 3.0% | -14.5% | u | -9.7% | 16.1% | u | 6.0%
COc1cc(/C=C/CN2CCN(CCC(C)C)C(CCO)C2)ccc1O (stereo not drawn) | x | -14.3% | x | x | 0.7% | -7.0% | x | 10.1%
C#CCn1c(=NC(=O)c2ccc(Br)s2)sc2cccc(OC)c21 | 28.5% | -8.8% | 18.3% | x | -1.1% | 30.1%[activator] | x | 14.4%
Cc1nn(-c2ccc(C(F)(F)F)cn2)c(C)c1Oc1ccccc1O | 4.5% | 3.8% | -8.8% | u | -7.3% | -5.4% | -19.9% | -2.2%
COc1cccc(OC)c1C(=O)Nc1nc2ccc([N+](=O)[O-])cc2s1 | x | 23.0% | x | -2.0% | -0.3% | -20.0% | u | 7.3%
Fc1ccc(NC(=S)NCc2ccccc2Cl)cc1 | -0.4% | -19.9% | -1.8% | -3.0% | u | 19.8% | 37.5% | -34.6%
CCc1cccc2c(C(=O)CN3C(=O)NC4(CCc5ccccc54)C3=O)c[nH]c12 (stereo not drawn) | x | -1.9% | x | u | 0.4% | -27.1% | u | x
CCOC(=O)/C(=C/c1c[nH]c2ccccc12)NC(C)=O | -3.9% | 4.8% | -4.9% | 8.3% | 3.2% | -0.9% | 7.8% | 0.3%
C/C(CCc1c[nH]c2ccccc12)=N\O | -0.9% | -3.9% | 1.5% | -9.7% | 2.7% | 6.7% | 9.4% | u
CC(O)CNc1nc(NCc2ccccc2)c2cnn(C)c2n1 (stereo not drawn) | x | 7.1% | x | x | -4.8% | -8.5% | x | 0.7%
Cn1c(C(=O)Nc2cccc(C(F)(F)F)c2)cc2c(=O)n3ccccc3nc21 | -6.1% | x | 5.4% | 10.5%[46.1 µM] | x | -9.2% | x | x
O=C(CCCn1c(=O)c2sccc2n(Cc2cc(=O)n3ccccc3n2)c1=O)NCc1ccco1 | -8.9% | 0.5% | -3.4% | x | 8.4% | -9.0% | x | 17.5%
CCOC(=O)c1sc2nccc(N(C)C)c2c1N=CN(C)C | -9.3% | -1.7% | -4.9% | -1.7% | -1.1% | -37.6% | u | -20.2%
COc1ccc(CN2C(=O)CCC2(C)C(=O)NC2CCCCC2)c(OC)c1 (stereo not drawn) | 11.1% | 7.2% | 5.3% | -1.4% | -0.3% | -16.9% | u | -5.8%
CCN(CC)CCNC(=O)Cc1nn(CC)c(=O)c2ccccc12 | -1.7% | 6.5% | 3.6% | 3.2% | -3.0% | x | -16.4% | -14.0%
CCOC(=O)c1ccc2c(c1)n(CCO)c(C)[n+]2CC | -5.7% | 1.2% | 5.0% | -4.8% | -0.6% | -7.5% | -13.7% | -1.0%
Cc1cccc(Cl)c1NC(=O)N1CCCN(c2nc3ccc(Cl)cc3s2)CC1 | x | -14.5% | x | x | -1.9% | u | x | -2.9%
CC(C)(C)OC(=O)N1CCC(c2c(C(=O)N3CCCCC3)cnn2-c2ccc(Cl)cc2)CC1 | -6.5% | x | -1.6% | u | x | -3.9% | x | x
CCOC(=O)c1sc(=S)n(C)c1NC(=O)c1ccc(F)cc1 | 7.0% | -0.8% | -4.6% | -18.5% | 2.4% | u | 8.0% | 0.7%
CCCCOc1ccc(OCCNS(=O)(=O)N(C)C)cc1 | 2.0% | -14.3% | 1.3% | -30.0% | -3.1% | x | 12.9% | -15.5%
CC(=O)Nc1ccccc1-c1nc2ccccc2nc1OCC(=O)c1ccc(Br)cc1 | u | -7.0% | 2.3% | -24.9% | 2.4% | -21.4% | u | 6.9%
Cc1cccc(C)c1N(CC(=O)Nc1cc(Cl)ccc1Oc1ccccc1)S(C)(=O)=O | -18.6% | 19.9% | -2.7% | u | -3.4% | -25.8% | u | -1.9%
Cc1ccc(-n2cccc2/C=C2/C(=N)N3C(=NC2=O)SN=C3S(C)(=O)=O)cc1 | x | 18.1% | x | 7.3% | -4.8% | -17.3% | u | x
CC(=O)Nc1ccc(OCC=C(Cl)Cl)cc1 | -3.2% | 7.2% | -3.9% | 7.8% | -9.3% | 8.4% | 12.0% | -11.6%
CCC(C)NC(=O)CN1c2cccc3cccc(c23)S1(=O)=O (stereo not drawn) | x | 6.5% | x | x | -0.6% | 2.3% | x | -3.0%
N#CCCN(C(=O)COC(=O)COc1ccc(Cl)cc1)c1ccccc1 | x | 9.4% | x | 5.6% | 0.8% | -19.0% | 25.2%[46.1 µM] | x
Cc1ccccc1C(OCC(O)CN1CCC(C(N)=O)CC1)c1ccccc1 (stereo not drawn) | x | 6.0% | x | -4.1% | 6.1% | -17.4% | u | -23.8%
CC(C)[C@H](NS(=O)(=O)/C=C/c1ccccc1)C(=O)OCC(=O)NC(N)=O | x | 8.7% | x | x | 2.4% | 0.1% | x | -0.9%
CCOC(=O)N1CCc2c(sc3c2c(=O)n(-c2ccc(CC)cc2)c(=O)n3Cc2cccc(Cl)c2)C1 | -8.6% | x | -2.2% | -6.1%[46.1 µM] | x | -17.1% | 18.8%[46.1 µM] | x
COc1ccc(CCNC(=O)c2cc([N+](=O)[O-])ccc2N2CCOCC2)cc1 | x | 3.8% | x | -29.1% | -0.4% | -1.2% | u | x

Full records from above. Order of screens: Cruzain inh noDet	RE007 growth inh	Cruzain Triton	LASV entry inh	SARS PLpro yeast	StopGo reporter	MARV entry inh	NS1 function inh
`CCC(C)NC(=O)CN1c2cccc3cccc(c23)S1(=O)=O` (stereo not drawn) across the screens: x	6.5%	x	x	-0.6%	2.3%	x	-3.0%
`CCN(CC)CCNC(=O)Cc1nn(CC)c(=O)c2ccccc12` across the screens: -1.7%	6.5%	3.6%	3.2%	-3.0%	x	-16.4%	-14.0%
`CC(C)[C@H](NS(=O)(=O)/C=C/c1ccccc1)C(=O)OCC(=O)NC(N)=O` across the screens: x	8.7%	x	x	2.4%	0.1%	x	-0.9%
`S=C1NCN(C2CCCCC2)CN1CCc1ccccc1` across the screens: x	-8.3%	x	u	0.3%	26.8%	-29.5%[46.1 µM]	0.0%

(more compounds)
structure | Cruzain inh noDet | RE007 growth inh | Cruzain Triton | LASV entry inh | SARS PLpro yeast | StopGo reporter | MARV entry inh | NS1 function inh
Cc1ccc(S(=O)(=O)N(C)C)cc1NC(=O)CSc1ncn[nH]1 | x | 13.0% | x | 14.5%[46.1 µM] | -1.7% | -10.7% | -13.1%[46.1 µM] | 8.8%
CC(CO)Nc1nc(SCc2ccccc2)nc2sc3c(c12)CCC3 (stereo not drawn) | -5.0% | -1.3% | -3.4% | 22.5% | -32.9% | -23.0% | 9.5% | 5.6%
Nc1nc(SCC(=O)Nc2ccc(Cl)cn2)n[nH]1 | x | 9.1% | x | 4.8% | 0.6% | -8.3% | -1.1%[46.1 µM] | x
CC(C)(C)c1cc(C(=O)N/N=C/c2ccccc2O)n(-c2ccccc2)n1 | -8.1% | 1.3% | -9.2% | u | 14.1µM* | -20.1% | u | 7.3%
O=C(N/N=C/c1ccncc1)c1ccccc1OCc1ccc(Br)cc1 | -6.2% | 12.9% | -7.3% | u | -32.3% | -9.9% | u | -1.6%
COc1ccc(C(C)=O)cc1COc1cc(C)c(Cl)c(C)c1 | x | 1.1% | x | x | 0.5% | 4.7% | x | 2.4%
O/N=C\c1cccn1-c1ccc(Br)cc1 | u | u | -2.1% | 7.1% | -18.4% | -17.9% | 6.8% | 13.2%
CS(=O)(=O)N1CCC(C(=O)Nc2cccc(C(F)(F)F)c2)CC1 | 10.4% | -2.9% | 3.0% | 6.8% | 1.9% | -9.0% | -8.5% | 2.3%
O=C(O)CCC(=O)NCCn1c(-c2ccccc2)csc1=Nc1ccccc1 | 2.4% | -5.7%&-14.8% | 4.0% | 7.1%[46.1 µM] | -3.9% | 17.2% | -3.5%[46.1 µM] | -10.1%
CCOC(=O)c1c(-c2ccccc2)nc2ccc(Cl)cn12 | 6.5% | -18.7% | -1.3% | u | -24.0% | u | u | -45.4%
Cn1c(=O)cc2c3c(c(N4CCCCC4)ccc31)C(=O)c1ccccc1-2 | x | -2.1% | x | x | 3.7% | 2.1% | x | 2.1%
O=C(Cc1ccc(F)cc1)N1CCN(c2ccc([N+](=O)[O-])cc2)CC1 | x | -2.7% | x | x | 8.8% | u | x | -19.3%
CCc1ccccc1NC(=O)/C(C#N)=C\c1ccc(Sc2ccccc2)o1 | -5.1% | 8.7% | -0.9% | 0.8% | -2.0% | x | -37.0% | -5.8%
N#Cc1ccc(OCCOCCNC2CCCC2)cc1 | 10.6% | -5.8% | 4.2% | 13.7% | -6.3% | -2.3% | u | 3.3%

High-throughput results as filed in PubChem.

Compounds as they come; overall some 4.7% were active at least once.
